Source: PubChem BioAssay
Six1-Eya2 inh: blocks human Six1 binding to Eya2 | AlphaScreen GST-Six1/His-Eya2 binding, biochemical; stronger effect = lower value; control for the full effect not named in the record | hit rate 0.56% among 360,000 | Q15475+O00167 | activity change, % (no concentration beside the values); in the data active = activity change below about -65%; inconclusive = about -30% to -65%; inactive = above about -30%; note: % is set by controls: 0 for no effect and ±100 for the full control effect; compound concentration not given in the record
Target sequence (O00167 whole entry, looked up): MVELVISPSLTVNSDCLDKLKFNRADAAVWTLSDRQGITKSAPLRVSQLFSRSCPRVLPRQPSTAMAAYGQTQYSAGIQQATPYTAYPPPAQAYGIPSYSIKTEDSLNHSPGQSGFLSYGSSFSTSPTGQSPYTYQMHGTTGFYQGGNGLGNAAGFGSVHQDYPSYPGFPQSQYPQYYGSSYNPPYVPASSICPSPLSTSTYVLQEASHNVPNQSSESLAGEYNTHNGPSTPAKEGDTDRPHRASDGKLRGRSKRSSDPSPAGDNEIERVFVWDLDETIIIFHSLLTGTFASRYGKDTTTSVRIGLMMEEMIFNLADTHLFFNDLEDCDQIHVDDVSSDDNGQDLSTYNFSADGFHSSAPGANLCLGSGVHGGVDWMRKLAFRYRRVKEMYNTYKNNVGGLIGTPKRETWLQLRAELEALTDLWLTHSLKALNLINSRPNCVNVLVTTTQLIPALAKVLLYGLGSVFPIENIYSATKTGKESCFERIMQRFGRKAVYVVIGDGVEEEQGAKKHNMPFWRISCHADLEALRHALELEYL
Target sequence (Q15475 whole entry, looked up): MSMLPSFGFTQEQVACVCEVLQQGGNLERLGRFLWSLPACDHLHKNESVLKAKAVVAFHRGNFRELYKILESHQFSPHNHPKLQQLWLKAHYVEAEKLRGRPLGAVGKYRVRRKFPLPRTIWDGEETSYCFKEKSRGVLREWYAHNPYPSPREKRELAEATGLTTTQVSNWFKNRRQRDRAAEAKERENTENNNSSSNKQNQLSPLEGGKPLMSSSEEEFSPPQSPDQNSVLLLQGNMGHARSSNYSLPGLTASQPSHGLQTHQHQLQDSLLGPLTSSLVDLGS
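Compounds are tested against tagged Six1 and Eya2 proteins bridged by glutathione donor and nickel acceptor beads; after a one-hour incubation at 37 °C without light, AlphaScreen emission is recorded.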
TRPML1 ag: human mucolipin-1 channel agonism | TRPML1-expressing cells, Ca2+ dye fluorescence, FDSS; host cell line not named in the record; reference of the full effect not given here | activation, % (test concentration not listed) | hit rate 0.12% among 410,000; in the data active = activation above about 50%; inconclusive = about 30% to 50%; inactive = below about 30%; note: 0% is about no effect; the text of the record puts the active cut at 80%
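Kinetic FDSS Ca2+ read in Tet-induced TRPML1-DL cells (ABD Ca8 dye plus quencher, 45-90 min RT loading): baseline, then compound, then 110 s agonist window; EC80 agonist 54-4 at 4uM final added afterwards for a 110 s antagonist window.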
D2 PAM: positive allosteric modulators of human D2 dopamine receptor; P14416; DiscoveRx D2 beta-arrestin cells, luminescence, 90 min; 100% = 57 uM dopamine signal; potentiation, % (test concentration not listed); hit rate 0.23% among 360,000; AID 624464; active = potentiation of 50% or more; inconclusive = 30% to 50%; inactive = 30% or less;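 note: compound concentration not given in the record; tested on top of an EC20 dose of dopamine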
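PathHunter beta-arrestin assay in DiscoveRx D2 cells. Compounds were added with an EC20 of dopamine (50 nM final) for 90 min at 37 deg C. Luminescence was read 1 h after detection reagent, with 57 uM dopamine as the EC100 control.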
D2 agonist: activates the human D2 dopamine receptor. P14416. DiscoveRx PathHunter D2 beta-arrestin, luminescence, 90 min; 100% = 57 uM dopamine signal. activation, % (test concentration not listed). hit rate 0.084% among 360,000. AID 624465; in the data active = activation above about 40%; inconclusive = about 15% to 40%; inactive = below about 15%; note: compound concentration not given in the record; the text of the record calls up to 30% inactive
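DiscoveRx PathHunter D2 beta-arrestin cells (2,100/well) attached overnight, then compound-stimulated 90 min at 37 C in HBSS/10 mM HEPES/0.1% Tween-20 buffer; beta-galactosidase complementation read by luminescence after 1 h at ambient temperature. Dopamine 57 uM final (EC100) as control.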
PINK1 modulator: modulators of PINK1 expression. PINK1 immunofluorescence, high-content cytometry, 24 h. hit rate 0.2% among 410,000. Potency, µM (titrated, usually from 76.6 µM), for inactives: at the top dose activation (PINK1 increase), hits mostly activators. AID 624263; active = well fitted activation curve with a large enough effect; inconclusive = small, poorly fitted or top-dose-only effect; inactive = flat fitted curve, though single readings scatter; cell line not stated here;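 note: potency is the fitted concentration of half-maximal effect; % of control where 0% means no effect; nearly all actives have a fitted effect of over 65% in size; a mitochondrial uncoupler was the plate control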
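A stable cell line was treated with compounds at 5 concentrations for 24 hours, with CCCP as control. PINK1 levels and mitochondrial localization were measured by immunofluorescence with mitochondrial, cell and nuclear markers after fixation, read by laser-scanning cytometry.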
TRPML1 blocker: blocks the human TRPML1 channel | Q9GZU1 | TRPML1-inducible cells, Ca2+ dye fluorescence, FDSS; stronger effect = lower value; inhibition of EC80 agonist-evoked calcium signal | activity change, negative = inhibition, % (concentration not given with the values) | hit rate 0.02% among 390,000; in the data active means activity change below about -50%; inconclusive means about -30% to -50%; inactive means above about -30%;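 note: stimulus is agonist 54-4 at its EC80 concentration; % is set by controls: 0 for no effect and ±100 for the full control effect; compound concentration not given in the record; the text of the record puts the active cut at -80%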
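Calcium fluorescence in TRPML1-DL cells induced overnight with Tet: a 110 s read after compound pin addition, then a 110 s antagonist read after challenge with 54-4 at 4 uM final (EC80).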
An asterisk follows results filed as active; ? = inconclusive; · = no result given; & = joins results of further samples; [ ] = another dose, or the depositor's remark. The order is random; about 1% have a hit in one of these screens.

Order of values: Six1-Eya2 inh | TRPML1 ag | D2 PAM | D2 agonist | PINK1 modulator | TRPML1 blocker
- CCOC(=O)Cc1c(C)nc(SC)[nH]c1=O
→ 0 | -0.7 | 0 | -0.4 | 1.9% | -4
- O=C(Oc1ccc2c(-c3ccccc3)cc(=O)oc2c1)C1CCCCC1
→ 19 | 0.6 | 0 | 0.0 | -3.2% | 9
- C=CCSC1=N/C(=C\c2ccc3c(c2)OCO3)C(=O)S1
→ 13 | 1.2 | -2 | -3.8 | -0.9% | -14
- CCOc1ccccc1/C=N/n1c(C)nc2ccccc2c1=O
→ 5 | -0.6 | -1 | -2.8 | 1.3% | -19
- CCNCCOC(c1ccccc1)c1ccccc1
→ 6 | 0.0 | -17 | -3.4 | -24%[38.3 µM] | 6
- COc1ccc(C(=O)N/N=C/c2ccc(OC)c(COc3ccccc3)c2)cc1
→ -11 | 2.3 | -25 | -2.7 | 1.0% | 14
- CC(=O)NCCn1c(SCc2cccc([N+](=O)[O-])c2)nc2ccccc2c1=O
→ 4 | 0.6 | 2 | -1.1 | 1.8% | -26
- COC(=O)[C@@H](Cc1ccccc1)NS(=O)(=O)N[C@H](Cc1ccccc1)C(=O)OC
→ 11 | -1.2 | -7 | -3.5 | 1.4% | 19
- CCCn1nnnc1SCC(=O)NNC(=O)c1ccco1
→ 1 | 2.1 | 4 | -2.3 | 1.8% | -16
- CCCN(C(=O)c1cc2c(s1)-c1ccccc1OC2)c1ccccc1F
→ · | 3.3 | · | · | 8.7% | 65
- N#C/C(C(=O)N1CCCCC1)=C1\Nc2ccccc2S1
→ 9 | 1.5 | -2 | 0.0 | 0.0% | 0
- Oc1ccc(Br)cc1C1Nc2ccccc2S1 (stereo unspecified)
→ 34 | -1.1 | -2 | -2.1 | 7.4% | 12
- COC(=O)Nc1ccc(OCC(=O)N2CCOCC2)cc1
→ 8 | -1.7 | 1 | -6.2 | -0.2% | 15
- CCN(CC)S(=O)(=O)c1ccc(NC2c3ccccc3C(=O)N2CCN2CCOCC2)cc1 (stereo unspecified)
→ -2 | -0.5 | -7 | -1.3 | 0.7% | 4
- C=CCn1c(CCC(=O)O)ccc1-c1ccc(OC)cc1
→ -10 | 0.6 | 4 | -1.6 | · | -1
- O=C(CCC(=O)Nc1nnc(C2CCCCC2)s1)Nc1ccc(F)cc1
→ 1 | -0.7 | 1 | -0.4 | -0.6% | -1
- Cn1c(=O)[nH]c(=O)c2c1nc(SCC(=O)O)n2CCc1ccccc1
→ 6 | -0.2 | -4 | 0.7 | -0.2% | 8
- Cc1cccc(OCC(=O)N2CCN(S(C)(=O)=O)CC2)c1
→ 13 | -0.3 | -5 | 3.7 | -0.1% | 6
- CCc1nnc(NC(=O)c2ccc(S(=O)(=O)N(CCOC)CCOC)cc2)s1
→ 5 | -1.0 | -2 | -1.3 | 0.6% | -9
- CC1(C)CC(=O)C2=C(C1)N(N1CCOCC1)C(N)=C(C#N)C2c1cccnc1 (stereo unspecified)
→ 9 | -0.6 | -17 | -2.9 | 0.5% | -8
- COC(=O)c1ccc(NC(=S)Nc2ccc(O)cc2)cc1
→ 1 | 0.4 | -3 | 7.3 | 0.1% | -7
- COCCNC(=O)c1c[nH]c2ccc(S(=O)(=O)N3CCC4(CC3)OCCO4)cc2c1=O
→ -5 | 0.8 | 25 | 0.0 | -0.2% | -18
- CCn1nc(NC(=O)c2ccncc2)c2cc3ccc(C)cc3nc21
→ -10 | 2.9 | 13 | 5.3 | 1.4%[38.3 µM] | -3
- Cc1ccc(NC(=O)C(C)Sc2nnc3ccccn23)cc1 (stereo unspecified)
→ -5 | -1.4 | -25 | -2.2 | 1.0% | -6
- CCOCCOC(=O)C(C)Sc1n[nH]c(=O)[nH]c1=O (stereo unspecified)
→ 1 | -0.6 | 0 | 0.1 | -2.0% | 5
- CCCn1c(Oc2ccccc2)nc2c1c(=O)n(C)c(=O)n2C
→ 11 | 1.4 | -18 | -1.0 | -1.3% | -2
- O=C(C1CCC1)N1CCCc2cc(S(=O)(=O)N3CCN(c4ccccc4)CC3)ccc21
→ -8 | -0.7&0.6 | -6 | -0.7 | -0.4%&-2.0% | 21&15
- CCN(Cc1ccccc1)C(=O)c1ccc(N(C)S(=O)(=O)c2ccc(C)cc2)cc1
→ -7 | 2.8 | 6 | -2.7 | 7.5% | 79
- Cc1ccc(F)cc1C(=O)N1CCCC(c2cc(C(=O)NCc3ccc(F)cc3)no2)C1 (stereo unspecified)
→ -3 | -0.5 | -2 | 4.6 | 0.5% | ·
- CCOC(=O)c1ccc(NC(=O)CS(=O)(=O)Cc2nc(-c3ccc(C)cc3)oc2C)cc1
→ · | 2.8 | · | · | 4.1% | -1
- CCS(=O)(=O)c1ccc2oc(Nc3cc(C)cc(C)c3)nc2c1
→ -7 | 4.5 | -4 | -2.2 | 3.0%[38.3 µM] | 4
- Cc1ccc(C)c(N(C)C(=O)c2cn(C)c(=O)c3ccccc23)c1
→ · | 2.4 | · | · | 0.3% | 0
- Cc1c(C(=O)N2CCC(C(=O)Nc3ccc(F)c(Cl)c3)CC2)sc2nc[nH]c(=O)c12
→ · | -0.5 | · | · | 1.1% | -30
- O=C(NCCc1ccccc1)C1CCC(=O)N(CCCN2CCCC2=O)C1 (stereo unspecified)
→ 1 | -0.1 | -3 | -0.4 | 0.8% | -2
- Cc1ccc(NS(=O)(=O)c2ccc(OCC(=O)N3CCOCC3)cc2)cc1
→ 5 | 1.4 | -13 | -0.3 | · | 22
- COc1ccccc1CN(Cc1cc2cc(C)cc(C)c2[nH]c1=O)Cc1nnnn1CC1CCCO1 (stereo unspecified)
→ -20 | -0.2 | -12 | -2.1 | -6.6%[38.3 µM] | -12
- NC(=O)C1CC=CCC1C(=O)OCC(Cl)=C(Cl)Cl (stereo unspecified)
→ -1 | -0.9 | -14 | -1.7 | ? | -6
- Fc1ccc(-c2nn(-c3ccc(Cl)cc3)c3c2cnc2ccc(F)cc23)cc1
→ · | 0.5 | · | · | 4.0% | -4
- CN(Cc1c(C(=O)N/N=C/c2c(F)cccc2Cl)nnn1-c1nonc1N)C1CCCCC1
→ 0 | -0.3 | -14 | -1.6 | 1.3% | 12
- COc1ccccc1NC(=S)NC(=O)Cc1ccccc1
→ -8 | 1.2 | -10 | -1.6 | 3.7% | -6
- C/C(=N\NC(=O)NC1CCCCC1)c1ccc(Cl)s1
→ 0 | -0.4 | -5 | 1.7 | 8.5% | 28
- C=C(CN(C)C)C(=O)c1cc(C)ccc1C
→ 4 | 3.5 | -43 | -11 | -6.2% | 11
- C=CCn1c(SCC(=O)Nc2ccc3c(c2)CCC3)nc2ccccc2c1=O
→ 5 | 0.6 | -2 | -0.4 | -1.2% | 4
- O=C(Nc1ccccc1Sc1ccccc1)c1ccccc1
→ 40 | -0.5 | -12 | -5.2 | 0.6% | -7
- O=C(Nc1ccc(Cl)c(Cl)c1)c1csc(-c2ccccc2)n1
→ 3 | 1.4 | -31 | -1.1 | 4.8% | 10
- CC(C)C(NC(=O)c1ccccc1F)C(=O)OCC(=O)c1ccc(F)cc1 (stereo unspecified)
→ 9 | -0.4 | -5 | 0.6 | -1.2% | 6
- COc1ccc2oc(=O)c(C(=O)NC(C)c3ccccc3)cc2c1 (stereo unspecified)
→ 5 | 0.8 | -4 | 0.6 | 5.1% | 5
- CCC1C/C(=C/c2cccs2)C(=O)/C(=C/c2cccs2)C1 (stereo unspecified)
→ -23 | 1.2 | -5 | ? | 9.9% | 7
- CC(=O)NC(C)(c1ccccc1)c1nc(-c2cnc3ccccc3c2)cs1 (stereo unspecified)
→ -2 | -0.2 | -2 | -3.3 | 1.6% | ·
- CN(C(=O)CSC1=NCCS1)c1ccccc1
→ 6 | -0.2 | -13 | -4.0 | 0.9% | 32
- CCOC(=O)c1c(C)c(C(=O)NCc2ccc(OC)cc2)c(C)n1C
→ -2 | 2.8 | -10 | -3.8 | -0.5% | -13
- CCOC=C1C(=O)N(C(C)=O)c2cc(OC)c(OC)cc21
→ -8 | 1.4 | -8 | -0.4 | -4.2% | 40
- COc1ccc(S(=O)(=O)N(CC(=O)NCCCN(C)C)c2ccc(C)cc2)cc1OC
→ 11 | 0.8 | -9 | -3.5 | -0.5% | -8
- CCN(CC(=O)NCc1ccc(Cl)cc1)S(=O)(=O)c1ccc(F)cc1
→ 4 | -0.6 | -6 | 0.0 | -0.4% | 14
- O=C(CN(Cc1ccccc1)S(=O)(=O)c1ccccc1)NC1CC1
→ 1 | -0.7 | -2 | -1.1 | 0.9%[38.3 µM] | 4
- COc1cc(CNCCN(C)C)c(Br)cc1OC1CCCC1
→ -3 | -0.1 | -15 | -5.2 | 2.4% | 5
- N/C(=N\OS(=O)(=O)c1ccc(Cl)cc1)c1cccnc1
→ 3 | 0.5 | 6 | -1.1 | 4.6% | 2
- CC(C)(C)N(Cc1ccccc1)C(=O)CSc1ncn[nH]1
→ -2 | -0.2 | 6 | -0.2 | 0.3% | -6
- Cc1ccc(C)c(NC(=O)CN(C)C(=O)Cc2coc3cc(C)c(C)cc23)c1
→ 6 | 1.4 | -2 | 0.1 | 18% | 37
- CCc1nc(SCC(=O)Nc2ccccc2C)n[nH]1
→ 5 | -0.5 | -5 | -2.2 | -0.4% | 5

Just PINK1 modulator, for some of the entries so far:
| molecule | PINK1 modulator |
| --- | --- |
| CN(C(=O)CSC1=NCCS1)c1ccccc1 | 0.9% |
| CCOC(=O)c1c(C)c(C(=O)NCc2ccc(OC)cc2)c(C)n1C | -0.5% |

(continued)
Order of values: Six1-Eya2 inh | TRPML1 ag | D2 PAM | D2 agonist | PINK1 modulator | TRPML1 blocker
- COc1cccc(C2=CC(=O)CC(C)(C)C2)n1
→ 9 | -0.6 | -5 | -4.5 | 2.0% | 8
- Cn1c(CNC2CCCCC2)c(C#N)c2ccccc21
→ 6 | -0.3 | -5 | -4.7 | -0.2% | 10
- O=S(=O)(N/N=C/c1cccc(OC2CSC2)c1)c1ccccc1
→ 0 | 0.5 | -33 | -3.1 | ? | 3
- Cc1noc(C)c1C(=O)Nc1ccc(F)cc1F
→ 2 | 0.0 | -5 | -0.1 | -1.7% | -15
- COc1ccccc1N1CCN(Cc2ccc(C(=O)O)cc2)CC1
→ 2 | -0.3 | -17 | -8.1 | 1.3% | 48
- C/C(=N\O)C(C)(C)Nc1ccc(Br)cc1
→ 5 | 1.9 | -13 | -3.6 | -1.5% | -14
- COc1ccc(CNS(=O)(=O)c2ccc(C3CNC(=O)C3)cc2)cc1 (stereo unspecified)
→ 2 | -0.5 | -5 | 0.1 | -4.7%[38.3 µM] | -7
- CSCCCN1CCCC(CO)(Cc2ccc(F)cc2)C1 (stereo unspecified)
→ 13 | 0.4 | -53 | -2.5 | -0.9% | -1
- CN(C)CCCN1C(=O)c2oc3ccc(F)cc3c(=O)c2C1c1cccnc1 (stereo unspecified)
→ -3 | 0.3 | -7 | -2.8 | -1.7% | -19
